From PubChem BioAssay
MgrA DNA FP: S. aureus MgrA activity modulators, primary screen, biochemical, S. aureus Newman, fluorescence polarization. hit rate 0.13% among 84,000. inhibition, %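 (about 10 µg/mL by stock and volumes)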. MgrA-DNA binding;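 active = above 50% in either of two replicates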;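 also: 0% = protein plus DNA without compound and 100% = DNA alone without protein; higher means less MgrA bound to DNA so lower polarization; one replicate is shown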
S aureus helic: inhibitors of S. aureus replicative helicase, primary screen, biochemical, fluorescence unwinding readout | hit rate 0.05% among 120,000 | purified S. aureus helicase, fluorescence unwinding assay; about half of the hits fall short of the stated cut | replicative DNA helicase (DnaC/DnaB), Staphylococcus aureus | inhibition, %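 (tested at about 80 µM)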 | AID 485395, 2010;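 active = both duplicates at 50% or more, or one of them with a favoured structure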;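 also: 0% = mean of negative control wells and 100% = mean of positive control wells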
* = called active by the depositor; . = not tested or not shown. A portion of the library (hit frequency here may not be typical).

nr	SMILES	MgrA DNA FP	S aureus helic
1	O=C(Nc1ccccc1)Nn1cnc2ccccc2c1=O	.	-22
2	CCn1cc(SC(=N)N)c2ccccc21	.	-20
3	O=c1[nH]c(CN2CCC(Cc3ccccc3)CC2)nc2scc(-c3cccs3)c12	.	9
4	O=C1NC(/C=C/c2ccco2)Nc2sc3c(c21)CCN(Cc1ccccc1)C3 (configuration not stated)	.	-21
5	CCN(CC)CCOc1ccccc1	-12	9
6	O=C1/C(=C/c2cccs2)SC(=S)N1c1cccc(C(F)(F)F)c1	.	-3
7	CC(C)N(C(=O)COc1ccccc1C(=O)Nc1ccccc1)C(C)C	.	0
8	CC1CN(CC(=O)Nc2ccccc2C(C)C)CC(C)O1 (configuration not stated)	.	8
9	N#CC1=C(C#N)NC2(CCCCC2)C2CCCCC2=N1 (configuration not stated)	.	-13
10	CC1=CCC2COC(c3ccccc3)C1C2 (configuration not stated)	-3.2	12

For convenience, some entries already given.
nr	SMILES	MgrA DNA FP	S aureus helic
9	N#CC1=C(C#N)NC2(CCCCC2)C2CCCCC2=N1 (configuration not stated)	.	-13
10	CC1=CCC2COC(c3ccccc3)C1C2 (configuration not stated)	-3.2	12

Next section
nr	SMILES	MgrA DNA FP	S aureus helic
11	O=C(Nc1cccnc1Oc1ncnc2cc(Cl)ccc12)c1cccs1	0.2	.
12	CCS(=O)(=O)C(=C1NCCO1)S(=O)(=O)CC	-0.8	7
13	CCn1c(=O)cc(SCC(=O)N2CCCC2)c2ccccc21	.	-22
14	COC(=O)Cn1c(=NC(=O)/C=C/c2cccs2)sc2cc(Br)ccc21	.	19
15	COc1ccc(S(=O)(=O)N2CCN(C)CC2)cc1C	.	-20
16	FC(F)(F)c1ccc(N2CCN(c3cc(C(F)(F)F)nc4ccccc34)CC2)nc1	.	-23
17	COc1ccccc1-c1nn(-c2cccc(C(F)(F)F)n2)c(=O)o1	-1.8	.
18	O=C(Nc1nc(-c2ccncc2)cs1)C1CCCCC1	.	-14
19	CCCCN1CNC(=S)NC1	3.1	8
20	C=CCn1c(SCc2ccc3nonc3c2)nnc1-c1cccnc1	.	-1

Reformatted: results already given.
(18) O=C(Nc1nc(-c2ccncc2)cs1)C1CCCCC1
  MgrA DNA FP = .; S aureus helic = -14

(19) CCCCN1CNC(=S)NC1
  MgrA DNA FP = 3.1; S aureus helic = 8

(20) C=CCn1c(SCc2ccc3nonc3c2)nnc1-c1cccnc1
  MgrA DNA FP = .; S aureus helic = -1

Next records.
nr	SMILES	MgrA DNA FP	S aureus helic
21	CC(=O)Oc1cc(OC(C)=O)c2c(=O)c(-c3ccc4c(c3)OCCCO4)c(C)oc2c1	-1.9	.
22	CCn1nc(C(=O)NC2CCCc3ccccc32)c2ccccc2c1=O (configuration not stated)	.	5
23	CCOC(=O)CSc1nc2c([nH]c3ccccc32)c(=O)n1-c1ccc(C)cc1	.	-2
24	C=CCn1c(NCc2c[nH]c3ccccc23)nc2ccccc21	.	14
25	CCOC(=O)Nc1nnc(C(C)C)s1	1.4	6
26	CCOC(=O)/C(N=O)=C(\O)C1CCN(C(=O)OCC)CC1	.	6
27	N#Cc1ccc(OC(F)F)cc1	.	2
28	O=C(Nc1ccc(-n2nc(C(F)(F)F)cc2C(F)(F)F)cc1)Nc1cc(Cl)cc(Cl)c1	1.9	.
29	CC(=O)N1CCN(c2csc3ccccc3c2=O)CC1	.	7
30	CC1CN(c2ncc(C(=O)OCc3ccccc3)c(C(F)(F)F)n2)CC(C)O1 (configuration not stated)	-2.2	.
31	O=C(COC(=O)c1ccc(Br)cn1)c1ccccc1	.	-19
32	Cc1cc(-c2ccco2)n(CC(=O)O)n1	-4.7	13
33	CN1CCN(CC(O)COc2ccc3ccccc3c2)CC1 (configuration not stated)	-1.4	-1
34	Brc1ccc(-c2nnc3sc(CNCc4ccco4)cn23)cc1	.	10
35	O=C(O)C1CCCCC1C(=O)Nc1cccc(C(F)(F)F)c1 (configuration not stated)	2.0	-20
36	O=C(CSc1nnc(-c2ccc(Cl)cc2)o1)c1ccc(Cl)cc1	1.2	3
37	CN(CC(=O)Nc1ccc(F)c(F)c1F)C(=O)C1COc2ccccc2O1 (configuration not stated)	.	4
38	Cc1ccc(C(C)C)cc1OC(=O)c1cn(CCC#N)nc1-c1cccs1	1.3	9
39	COC(=O)C1Cc2c([nH]c3ccccc23)C(c2ccc(Cl)cc2)N1 (configuration not stated)	-0.3	.
40	Cc1ccc(COc2ccc(CC#N)cc2)cc1	-0.9	.
41	CCc1ccc(CCC(=O)O)cc1	.	-13
42	CSc1nnc(CSc2ncccn2)n1-c1cccc(C(F)(F)F)c1	.	11
43	CC1CCN(C(=O)c2ccc3c(c2)OCCO3)CC1	0.2	10
44	COc1ccc(/C=N/S(=O)(=O)c2cccs2)cc1	.	7
45	CC1C(=O)OC(c2ccc(Br)cc2)C(C)(C)C1=O (configuration not stated)	-0.6	1
46	COc1cc(N=Cc2cc3cccc(C)c3nc2Cl)c(OC)cc1Cl	-0.2	3
47	COc1ccccc1C1c2cc3c(cc2OC(C)(O)C1C)OCO3 (configuration not stated)	-1.7	10
48	CC(C)C(=O)N1CCC(CN=CC2=C(O)CC(C)(C)CC2=O)CC1	0.8	-1
49	Cc1cc2ncn(S(=O)(=O)N(C)C)c2cc1C	.	3
50	COc1cc(OC)c(NC(=O)/C=C/c2cc(C)n(Cc3ccco3)c2C)cc1Cl	.	5
51	O=C(Nc1ccc2ccccc2c1)/C(=C/c1ccco1)c1ccccc1	1.1	-12
52	Cc1ccc(-c2cn(S(=O)(=O)c3cccc4nsnc34)nc2N)cc1	0.9	19
53	CCOC(=O)C1(C(=O)OCC)CC1(C(=O)OCC)C(=O)OCC	-0.2	-4
54	COc1ccc(CNC(=O)C2C(Oc3ccc(Cl)cc3Cl)C(=O)N2c2cccc(C)c2C)cc1 (configuration not stated)	0.3	3
55	O=c1c2ccccc2c2ccccc2c(=O)n1Cc1cccnc1	2.5	9
56	NC1=Cc2ccccc2CN1c1ccccc1Cl	-2.1	9
57	C=CCn1c(=O)c2ccccc2n2c(SCC(=O)c3cc(C)ccc3C)nnc12	.	-4
58	O=S(=O)(NCc1ccccc1)c1ccccc1C(F)(F)F	.	-8
59	CC1CC(C)CN(c2ncnc3c2nc2n3CCCCC2)C1 (configuration not stated)	.	-15
60	O=C1OC(C2CCCCC2)=N/C1=C\c1ccccc1	-1.7	6
61	O=C(O)C(CO)c1ccccc1 (configuration not stated)	0.2	-7
62	CC(=O)N1c2c(cc(Br)cc2S(=O)(=O)N2CCN(c3ccc(C)cc3)C(C)C2)CC1C (configuration not stated)	.	6
63	C(/C=C/c1ccn[nH]1)=C\c1ccccc1	2.1	.
64	CCOC(=O)Cc1cc(=O)n2[nH]c(C)cc2n1	-1.9	.
65	CC1OC1P(=O)(O)O (configuration not stated)	1.5	.
66	Cc1ccccc1CS(=O)(=O)Cc1ccc(C(=O)NC2CC2)o1	3.8	13
67	O=C(N/C(=C\c1cccnc1)C(=O)N1CCCCC1)c1ccccc1	0.3	4
68	CN(C)CCC(O)c1ccc2c(c1)OCCCCO2 (configuration not stated)	1.4	.
69	CC1(C)CCCC2=C1CC(C(=O)O)C(C(=O)NCc1cccnc1)C2 (configuration not stated)	-0.2	-2
70	Cc1ccsc1C=Nc1ccc(Cl)cc1C(=O)c1ccccc1	0.9	3

Following part
nr	SMILES	MgrA DNA FP	S aureus helic
71	COc1ccc(CC2CCC(=NOC(=O)c3cccc(C(F)(F)F)c3)CC2)cc1 (configuration not stated)	-1.5	.
72	S=c1[nH]cnc2sccc12	.	7
73	COc1ccccc1CNC(=O)C(NC(=O)C1CCCCC1)C(C)C (configuration not stated)	.	19
74	CC1CC(=O)Nc2ccccc2N1C(=O)CNCc1ccccc1 (configuration not stated)	.	0
75	CCOC(=O)c1ccc(N2C(=O)C(O)=C(C(=O)c3ccco3)C2c2cccnc2)cc1 (configuration not stated)	-0.8	6
76	N#CCSc1nnnn1-c1cccnc1	3.0	-3
77	CC(C)CCNC(=O)c1cccn2c(=O)c3cc4ccccc4cc3nc12	14	-69
78	CCN(CC)Cn1nc(-c2ccccc2Cl)oc1=S	3.8	17
79	Cc1sc2nc(CSC(C)C(=O)OCc3cc(=O)n4ccsc4n3)[nH]c(=O)c2c1C (configuration not stated)	.	-10
80	NC(=O)c1ccccc1OCC(=O)NCC(F)(F)F	.	-16
81	Cc1c(Br)c(C(F)(F)F)nn1CC(=O)Nn1c(-c2cccc(Cl)c2)nc2ccccc2c1=O	-2.3	.
82	Cc1ccc(-c2cc3nc4c(c(C(F)(F)F)n3n2)CCC4)cc1	.	-23
83	CCOC(=O)c1c(NC(=O)c2cccc(Cl)c2)sc(C(=O)Nc2ccccc2C(F)(F)F)c1C	-3.1	.
84	N#Cc1ccc(OCc2ncc(C(F)(F)F)cc2Cl)cc1	-1.2	.
85	O=c1[nH]c(=S)[nH]cc1S(=O)(=O)c1ccc(F)cc1	-1.6	-3
86	C=CCNc1scc(-c2ccccc2)[n+]1CC=C	-4.9	-2
87	O=C(Cc1cccc2ccccc12)NCC(=O)Nc1ccc(N2CCOCC2)cc1	.	10
88	Cc1cc(Oc2ccccc2)ccc1[N+](=O)[O-]	3.6	.
89	Clc1ccc2nsnc2c1	-4.9	.
90	COc1ccc(C=Nc2ccc(C34CC5CC(CC(C5)C3)C4)cc2)c(OC)c1OC	1.3	-10
91	O=C(O)c1cccnc1SCc1cc(=O)n2cc(Br)ccc2n1	.	1
92	O=C(CCS(=O)(=O)c1cccc2nsnc12)NC(c1ccccc1)c1ccccc1	0.1	6
93	O=C1CC(CSc2ccccn2)=NN1	1.5	.
94	Cc1ccc(N2C(=O)CSC2c2ccc([N+](=O)[O-])cc2)c(Br)c1 (configuration not stated)	-1.7	.
95	CC(C)Cn1c(SCC(=O)c2ccc[nH]2)nc2ccccc2c1=O	.	17
96	CCSc1nnc(CCNC(=O)C2CCCC2)n1C	-1.4	20
97	N=C1SC2CS(=O)(=O)CC2N1c1ccccc1 (configuration not stated)	-1.2	.
98	Cc1ccc(C(=O)OCC(=O)N(C)c2ccccc2)c(O)c1	-1.8	-17
99	O=C(Nc1nc2ccc(F)cc2s1)C1CCCC1	.	11
100	CN1CCN(C(=O)CSCc2ccc(Br)cc2)CC1	1.9	18
101	COc1ccccc1NC(=O)c1ccc(C)cc1	.	17
102	Cn1c(=O)c2c(ncn2CC(O)CN2C(=O)c3ccccc3S2(=O)=O)n(C)c1=O (configuration not stated)	.	4
103	COCCN1Cc2cccc(C(=O)NC(C)C34CC5CC(CC(C5)C3)C4)c2C1=O (configuration not stated)	0.9	10
104	O=c1[nH]c2ccccc2c(=O)n1CCc1ccccc1	-3.0	7
105	CCC1CCCCN1C(=O)COC(=O)c1cccnc1Cl (configuration not stated)	2.1	17
106	CC1=Nc2ccccc2N=C(NC(=O)CN2CCCCCC2)C1c1ccccc1 (configuration not stated)	.	31
107	O=C(N[C@@H](Cc1ccccc1)C(=O)NC1CCCCC1)c1ccco1	.	-12
108	CN(C)N1C(=O)CC(NCc2ccccc2)C1=O (configuration not stated)	-0.7	-2
109	Cc1cc(C)cc(C(=O)N2CC(C)CC(C)C2)c1 (configuration not stated)	-4.3	8
110	COc1ccc(S(=O)(=O)n2nc(OC(=O)C(C)(C)C)cc2N)cc1	3.2	10

Rewritten field by field: part of the list above
13: CCn1c(=O)cc(SCC(=O)N2CCCC2)c2ccccc21
  MgrA DNA FP: .
  S aureus helic: -22
72: S=c1[nH]cnc2sccc12
  MgrA DNA FP: .
  S aureus helic: 7
109: Cc1cc(C)cc(C(=O)N2CC(C)CC(C)C2)c1 (configuration not stated)
  MgrA DNA FP: -4.3
  S aureus helic: 8
95: CC(C)Cn1c(SCC(=O)c2ccc[nH]2)nc2ccccc2c1=O
  MgrA DNA FP: .
  S aureus helic: 17

(list continues)
nr	SMILES	MgrA DNA FP	S aureus helic
111	CN(c1ccc(Br)cc1)S(=O)(=O)c1cnc[nH]1	.	11
112	Cc1cc(C(=O)CSc2nccn2-c2cccc(F)c2)c(C)n1-c1ncn[nH]1	.	7
113	COc1ccc(C2Nc3ccccc3-c3nnc(SC)nc3O2)cc1 (configuration not stated)	.	2
114	Cc1cc(S(=O)(=O)N2CCCN(Cc3ccc(Cl)cc3Cl)CC2)c(C)cc1Cl	-2.1	.
115	C=CCn1c(N)cc(=O)nc1SCC(=O)Nc1ccccc1	.	5
116	CCC(C)(C)NC(=O)c1ccc2ncsc2c1	.	-5
117	CCN1C(=O)c2cccc3c(NC(=O)c4ccco4)ccc1c23	.	15
118	CCN(C(=O)CSc1nc2nc(C)cc(C)n2n1)C1CCS(=O)(=O)C1 (configuration not stated)	.	-23
119	CCCNC(=O)C1CC(c2cnn(CC)c2C)=NO1 (configuration not stated)	.	17
120	COc1ccc(S(=O)(=O)N2CCC(C(=O)N3CCCC3)CC2)cc1OC	-0.5	-6
121	CC1CC(C)CN(S(=O)(=O)c2ccc(C(=O)Nc3nnc(C4CC4)o3)cc2)C1 (configuration not stated)	.	6
122	CCc1nc2cccnc2n1-c1ccc(CC(=O)N2CCOCC2)cc1	.	9
123	O=C1Nc2ccccc2C(=O)C1(N1CCOCC1)N1CCOCC1	.	5
124	COc1cc(/C=c2/sc3nc4cc(C)c(C)cc4n3c2=O)ccc1OCc1ccccc1	0.8	.
